MgrA DNA FP – S. aureus MgrA activity modulators, primary screen, biochemical, S. aureus Newman, fluorescence polarization | MgrA-DNA binding | inhibition, %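 (about 10 µg/mL by stock and volumes)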 | actives 0.13% (n = 84,000);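 active = above 50% in either of two replicates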;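 note: 0% = protein plus DNA without compound and 100% = DNA alone without protein; higher means less MgrA bound to DNA so lower polarization; one replicate is shown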
Sa helicase inh – inhibitors of S. aureus replicative helicase, primary screen, biochemical, fluorescence unwinding readout | replicative DNA helicase (DnaC/DnaB), Staphylococcus aureus | purified S. aureus helicase, fluorescence unwinding assay; about half of the hits fall short of the stated cut | inhibition, %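 (tested at about 80 µM)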 | actives 0.05% (n = 120,000);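 active = both duplicates at 50% or more, or one of them with a favoured structure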;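 note: 0% = mean of negative control wells and 100% = mean of positive control wells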
* = called active by the depositor; · = not tested or not shown; & = joins results of further samples.

MgrA DNA FP | Sa helicase inh | molecule
2.5 | -4 | CC1CN=C(N(C(=O)Nc2ccccc2)c2ccc(OC(F)(F)F)cc2)S1 (centres undefined)
· | 11 | CC(=O)Nc1ccc(C(=S)NCC(c2ccco2)N2CCCCC2)cc1 (centres undefined)
3.0 | 2 | CCN(CC)CC#CCN1c2ccccc2Sc2ccccc21
-7.8 | 1 | CCOc1ccc(NC(=O)CCC(=O)n2nc(-c3ccccc3)cc2-c2ccccc2)cc1
-1.8 | 3 | COC(=O)/C=c1\sc2nc(N)nn2c1=O
3.7 | 8 | CC(=O)N/C(=C\c1ccccc1)C(=O)NC1CCCCC1C (centres undefined)
· | -30 | CN(Cc1ccccc1)C(=O)CSc1cc(=O)n(C)c2ccccc12
1.8 | · | COC(=O)c1ccc(C2NC(=O)N(C)C(C)=C2C(=O)OCCOc2ccccc2)cc1 (centres undefined)
4.0 | 12 | CCN(CCO)C(=O)CCN1C(=O)/C(=C/c2ccc(OC)c(OC)c2)SC1=S
2.0 | · | O=C1c2cccc3cc([N+](=O)[O-])cc(c23)C(=O)N1CCO
· | 3 | CCn1c(=O)c(CCC(=O)NCCN2CCOCC2)c(C)c2c(C)nn(-c3ccccc3)c21
· | -1 | CN(Cc1ccccc1)C(=O)CCC(=O)N1CC2CCCN2c2ccccc21 (centres undefined)
2.3 | -7 | O=C(CC(=O)NN=C1CCCC1)NCc1ccccc1
1.9 | 6 | CCC(C)(C)n1c(=O)[nH]c2c(c1=O)CCC2
-0.8 | 7 | O=C1CNC(=O)N1CC(O)Cn1c2ccccc2c2ccccc21 (centres undefined)
1.4 | · | CN(C)CCC(O)c1cc(Cl)sc1Cl (centres undefined)
· | 7 | N#CCSc1nnc(CSc2nc3ccccc3s2)n1Cc1ccccc1
2.7 | · | O=C1CC(c2cccs2)CC(O)=C1C=Nc1cccc(C(F)(F)F)c1 (centres undefined)
3.0 | -20 | COc1ccc(-c2nn(-c3ccccc3)cc2C#N)cc1OC
3.2 | 2 | CC(C)N(C(=O)C[n+]1ccc(/C=N/O)cc1)C(C)C
0.4 | 4 | CC(Sc1ccccn1)C(=O)Nc1ccc(S(N)(=O)=O)cc1 (centres undefined)
-0.9 | 2 | Cc1ccc(N/C(N)=N/c2nc(CSc3nnc(C)s3)cc(=O)[nH]2)c(C)c1
1.2 | · | O=C(O)CCSc1cccc(C(F)(F)F)c1
0.6 | 13 | COC(=O)C(CC(=O)c1ccc(Br)cc1)n1cncn1 (centres undefined)
· | -3 | NC(=O)C[n+]1cccc(C(N)=O)c1

Another view of some results above:
| Molecule | MgrA DNA FP | Sa helicase inh |
| --- | --- | --- |
| O=C(CC(=O)NN=C1CCCC1)NCc1ccccc1 | 2.3 | -7 |
| CCC(C)(C)n1c(=O)[nH]c2c(c1=O)CCC2 | 1.9 | 6 |

Further records:
MgrA DNA FP | Sa helicase inh | molecule
-2.1 | · | N#CCc1ccc(NC(=O)c2nccnc2C(=O)O)cc1
-0.9 | 6 | O=C(CN1C(=O)C2(OCCO2)c2ccccc21)c1ccc(Br)cc1
· | 2 | Clc1ccc(CSc2nnc(Cc3cccs3)n2C2CC2)cc1Cl
0.6 | 2 | Cc1ccc2[nH]c(CNC(=O)C3CC3)cc2c1
· | 6 | Cc1cc(C)cc(-n2ncc3c(=O)[nH]cnc32)c1
0.3 | 3 | CCCC(=O)C1=C(N(C)c2ccccc2)CC(C)(C)CC1=O
2.5 | -12 | CNCc1ccc(-c2ccc(F)c(Cl)c2)o1
· | -2 | O=C(CSCc1ccccc1)NCc1ccccc1
0.8 | 1 | O=C1N(CNc2ccccc2)CCN1CNc1ccccc1
· | 6 | COc1ccc(NCC(O)COc2ccc(OC)cc2)cc1 (centres undefined)
· | -39 | S=C1NC2(CCCC2)Nc2ccccc21
· | 9 | Cc1ccc(N/C(N)=N/c2nc3c(c(=O)[nH]2)CCCC3)c(C)c1
· | 1 | O=C(/C=C/c1ccc(Br)o1)OCCCn1c(=O)[nH]c2ccccc21
-0.5 | · | O=C1CCCN=C(N(C(=O)c2ccco2)c2cccc(C(F)(F)F)c2)S1
1.1 | 7&15 | Cc1cccc(NC(=S)NCCCN2CCOCC2)c1
· | 19 | Brc1ccc(-n2nnnc2-c2cn[nH]c2-c2ccccc2)cc1
-1.6 | · | COc1cc(/C=C2/N=C(c3ccccc3Br)OC2=O)cc(OC)c1OC
· | 10 | Cc1ccc2cc(-c3noc(C4CCCCC4)n3)c(=O)[nH]c2c1
· | -11 | O=C1c2cccc3cccc(c23)N1CN1CCCCC1
1.4 | · | O=C1CS/C(=C/C(=O)N2CCCC2)N1
2.6 | 5 | CCCc1cc(=O)oc2cc(OCC(=O)OCc3ccccc3)ccc12
· | 14 | Cc1cccc(C)c1NC(=O)C1(N(C)C(=O)c2ccc3ccccc3n2)CCCC1
-0.9 | -4 | COCCn1nnnc1C(c1ccc(OC)c(OC)c1)N1CCc2ccccc21 (centres undefined)
· | -9 | Cc1nnc(SCC(=O)c2cc(C)n(CC3COc4ccccc4O3)c2C)n(N)c1=O (centres undefined)
0.3 | · | CC1CN(C2=NCCN2)CC(C)O1 (centres undefined)

Next section.
MgrA DNA FP | Sa helicase inh | molecule
0.2 | 4 | CCOc1ccc(N=CC=Nc2ccc(OCC)cc2)cc1
· | -3 | c1ccc(OCCSc2nnc(-c3c[nH]c4ccccc34)o2)cc1
-3.0 | 11 | CCOC(=O)c1cnc2nc(C(F)(F)F)nn2c1N
· | -8 | CCCN1C(=O)c2ccc(-c3nc4ccccc4c(=O)o3)cc2C1=O
-2.6 | 16 | Cc1ccsc1C(=O)OCC(=O)NC(c1ccccc1)c1ccccc1
· | 15 | Cc1ccc(S(=O)(=O)N2CCn3c(nc4ccccc43)C2)cc1
· | -5 | CC(C)(C)C(=O)Nc1nnc(SCc2ccccc2)s1
· | -12 | N#Cc1cc2c(cc1N)OCO2
· | -12 | CSc1ccnc2c1c(=O)n(C)c(=O)n2C
· | 20 | COc1ccc(-c2nnc(SCC(=O)N=Nc3c(O)[nH]c4ccccc34)n2-c2ccccc2)cc1OC
· | 13 | CCn1c2ccccc2c2nnc(SCN3C(=O)c4ccccc4C3=O)nc21
-11 | -2 | Cc1ccc2nc(COCC(=O)O)[nH]c2c1
· | -14 | CC1CCCC(C)N1C(=O)CSc1nnc(C(F)(F)F)n1N (centres undefined)
0.5 | · | COc1ccc(N2C(=O)NC(=O)/C(=C/c3ccc(OC(=O)c4cccs4)c(OC)c3)C2=O)cc1
2.0 | 3 | CCC1CCCCN1C(=O)COC(=O)c1cc(C)nc2ccccc12 (centres undefined)
· | -15 | O=C(C1CC(=O)N(c2ccc3c(c2)OCCO3)C1)N1CCCSC1=Nc1ccccc1 (centres undefined)
2.2 | · | CCOC(=O)[C@H](CCCN=C(N)N)NC(=O)c1ccccc1
-6.5 | 18 | O=C(O)c1ccnn1C(F)F
· | -6 | COc1ccc(NC(=O)C2CC2)c2ccccc12
3.0 | -3 | Cc1ccc2nsnc2c1S(=O)(=O)N1CCCC1
-2.5 | · | CC(=O)N1CCC(C(=O)NCc2ccc(-n3cccn3)cc2)CC1
1.0 | 12 | Nc1nc(SCCc2ccccc2)n[nH]1
· | 9 | COc1ccc(C2OC(=O)CC2C(=O)NCc2ccc(C)cc2)cc1OC (centres undefined)
· | 2 | Cc1ccc2cc(C3CC(c4ccccc4)=NN3C(=O)CCC(=O)O)c(=O)[nH]c2c1 (centres undefined)
0.0 | · | Clc1ccc2sc(N3CCCC3)nc2c1

(continued)
MgrA DNA FP | Sa helicase inh | molecule
· | -8 | Cc1ccc(CN2CNc3nnnn3C2)cc1
· | 4 | CCCn1c2ccccc2c2nnc(SCC(=O)Nc3ccc(F)c(F)c3)nc21
-1.1 | 9 | CCc1ccc(S(=O)(=O)N2CCSC2c2ccccc2)cc1 (centres undefined)
-0.1 | 15 | COC(=O)C1=CN(CCc2ccc(F)cc2)C=C(C(=O)OC)C1c1ccccc1C(F)(F)F
-3.6 | 0 | O=C(O)c1ccc(OCOc2ccc(C(=O)O)c(C(=O)O)c2)cc1C(=O)O
· | -9 | CC(C)Cn1c(SCc2nnc(-c3cccs3)o2)nc(O)cc1=O
· | 15 | C=CCN1CC2=C(C1=O)C(c1ccccc1)NC(=O)N2 (centres undefined)
-1.0 | · | N#CCC(=O)NCc1ccco1
-0.2 | -2 | c1ccc(Cn2cnnc2)cc1
· | -17 | O=C(NCCc1ccccc1)c1cc2cc(Cl)cc(Cl)c2oc1=O
-0.9 | · | CNC1c2c(ccc3ccccc23)OCC1CO (centres undefined)
-1.0 | · | CC(C)(C(=O)Nc1cccc(Cl)c1)S(=O)(=O)c1ccc(C(F)(F)F)cn1
4.4 | · | CC(C)CC(=O)NC(C(=O)N[C@H](C(=O)NC(CC(C)C)[C@@H](O)CC(=O)N[C@@H](C)C(=O)NC(CC(C)C)[C@@H](O)CC(=O)O)C(C)C)C(C)C (some centres undefined)
· | 14 | CSCCC(N=C1NS(=O)(=O)c2ccccc21)C(=O)N1CCN(C(=O)c2ccco2)CC1 (centres undefined)
2.3 | · | CNC(=S)N/N=C/c1cc(Br)cc(Br)c1O
· | -6 | O=c1[nH]nc(SCc2cn3ccccc3n2)c(=O)[nH]1
1.6 | -2 | CC(=O)NC1=NC(=O)/C(=C/c2cccc(Oc3ccccc3)c2)S1
0.2 | 2 | COc1ccccc1N1C(=O)C2CSC(c3ccc(C)cc3)N2C1=O (centres undefined)
-1.4 | 12 | CSc1ccccc1NC(=O)Cn1c(SC)nc2ccccc21
· | 13 | COCCN=c1scc(-c2cccs2)n1/N=C/c1c(C)nn(-c2ccccc2)c1Cl
· | 7 | CCCn1c2ccccc2c2cc(OC)ccc21
· | -42 | CCN(CC)c1cccc(Oc2ncnc3sccc23)c1
-0.8 | · | Cn1cnc(S(=O)(=O)Nc2ccccc2Oc2ccccc2)c1
0.3 | · | O=C(O)CC1(CC(=O)NCc2ccco2)CCCCC1
0.5 | -23 | O=C1N=C(c2ccccc2)O/C1=C\C=C\c1ccccc1

Molecules above with an aryl methoxy group (eleven):
MgrA DNA FP | Sa helicase inh | molecule
4.0 | 12 | CCN(CCO)C(=O)CCN1C(=O)/C(=C/c2ccc(OC)c(OC)c2)SC1=S
3.0 | -20 | COc1ccc(-c2nn(-c3ccccc3)cc2C#N)cc1OC
· | 6 | COc1ccc(NCC(O)COc2ccc(OC)cc2)cc1 (centres undefined)
-1.6 | · | COc1cc(/C=C2/N=C(c3ccccc3Br)OC2=O)cc(OC)c1OC
-0.9 | -4 | COCCn1nnnc1C(c1ccc(OC)c(OC)c1)N1CCc2ccccc21 (centres undefined)
· | 20 | COc1ccc(-c2nnc(SCC(=O)N=Nc3c(O)[nH]c4ccccc34)n2-c2ccccc2)cc1OC
0.5 | · | COc1ccc(N2C(=O)NC(=O)/C(=C/c3ccc(OC(=O)c4cccs4)c(OC)c3)C2=O)cc1
· | -6 | COc1ccc(NC(=O)C2CC2)c2ccccc12
· | 9 | COc1ccc(C2OC(=O)CC2C(=O)NCc2ccc(C)cc2)cc1OC (centres undefined)
0.2 | 2 | COc1ccccc1N1C(=O)C2CSC(c3ccc(C)cc3)N2C1=O (centres undefined)
· | 7 | CCCn1c2ccccc2c2cc(OC)ccc21

New compounds follow:
MgrA DNA FP | Sa helicase inh | molecule
· | -44 | O=C(O)c1c2c(nc3ccccc13)CCC2
0.5 | 2 | Cc1ccn2cc(-c3ccc(O)c(O)c3)nc2c1
-1.1 | · | COc1ccc(/C=C/C(=O)CCC(=O)O)cc1
0.8 | -3 | O=C(CNS(=O)(=O)c1ccccc1)Nc1ccc2c(c1)OCO2
· | -16 | FC(F)(F)c1ccc(N2CCN(C(c3ccccc3)c3ccccc3)CC2)nc1
-1.4 | 24 | COc1ccc(CCNC(=S)NCc2ccco2)cc1OC
-1.3 | · | CCc1c(C)oc2cc3ccccc3c-2c1C
-1.0 | -3 | COC(=O)C1CCN(C(=O)Nc2ccccc2)CC1
· | 7 | O=C1COc2ccc(C(=O)COC(=O)COc3ccc4c(c3)CCC4)cc2N1
· | -8 | COc1cc(-c2nnc(SCCSC)o2)cc(OC)c1OC
· | -13 | O=C(Nc1nnc(-c2ccc3c(c2)CCCC3)o1)C1CC1
-0.2 | · | S=C(NC1CC2C=CC1C2)N1CCOCC1 (centres undefined)
· | -1 | CN(Cc1cccs1)C(=O)c1cccc(C#N)c1
-1.6 | · | N#C/C(=C\NN1CCOCC1)S(=O)(=O)c1cc(C(F)(F)F)cc(C(F)(F)F)c1
-0.6 | 6 | CN(CC(=O)O)S(=O)(=O)c1ccc(Br)cc1
· | -15 | O=C(N/N=C/c1ccc(F)cc1)c1ccc(CN2CCOCC2)cc1
· | 9 | COc1ccc(CN2CN(C(C)C)CSC2=S)cc1
5.5 | · | NCCSC(=S)NC1CC1
· | -33 | CCOc1ccc(CCNC(=O)c2cc(C)[nH]n2)cc1OCC
· | -10 | CSCCC(C(=O)NC1=NCCS1)N1C(=O)c2ccccc2C1=O (centres undefined)
· | 2 | O=C(COC(=O)C1CC(=O)N(Cc2ccco2)C1)Nc1cccc2nsnc12 (centres undefined)
· | 13 | Cc1nc2ccccc2c(=O)n1-c1cccc(NC(=O)C2CC2)c1
· | -8 | O=C(CSc1ccc2c(c1)CCC2)N1CCNC1=O
· | -6 | CCN(c1ccccc1)S(=O)(=O)c1cc(C(=O)N2CCCN(C)CC2)ccc1C
· | 32 | CCCCC1NC(=S)N(C2CCCCC2)C1=O (centres undefined)

Carrying on.
MgrA DNA FP | Sa helicase inh | molecule
8.8&0.2&1.4 | · | Cc1ccc(S(=O)(=O)NC(=O)NN2CCCCCC2)cc1
-1.5 | 10 | O=C(OCc1c(F)cccc1Cl)c1cc[n+]([O-])cc1
0.7 | 3 | CC(C)CCNC(=O)C1CC(=O)N(c2ccccc2)C1 (centres undefined)
96* | 6 | CC1=NN(c2cccc(C(=O)O)c2)C(=O)/C1=C/c1ccc(-c2cccc(Cl)c2C)o1
· | 11 | Cc1ccc(S(=O)(=O)N2CCN(C(=O)COC(=O)/C=C/c3ccc(C)o3)CC2)c(C)c1
-4.6 | 3 | Cc1nc2ccccc2c2oc(C(=O)NC3CCCC3)cc12
· | 8 | CCCC(C(=O)O)N1C(=O)/C(=C/c2ccccc2Cl)SC1=S (centres undefined)

Assay outcomes (PubChem)

A portion of the library; the hit share may differ from the screen's.
